Assay outcomes deposited in PubChem by National Center for Advancing Translational Sciences (NCATS).
Vaccinia mCherry: vaccinia inhibition (mCherry reporter); Vaccinia virus mCherry reporter infection, fluorescence; about a quarter of the inactives have no number; Potency, µM (top dose mostly 36.5 µM), for inactives: at the top dose activity change, negative = inhibition, actives largely listed as inhibitors; 310,000 tested, 0.63% active; AID 720579; active = well fitted inhibition curve with a large enough effect; inconclusive = small, poorly fitted or top-dose-only effect; inactive = no such curve, though single readings can be large or run the other way; tested in A549 cells; further: nearly all actives have a fitted effect of over 35% in size; inactives centre near -10
VACV Venus inh: vaccinia inhibition (Venus reporter); Vaccinia virus Venus reporter expression, fluorescence; Potency, µM (highest dose often 36.5 µM), for inactives: at the top dose activity change, negative = inhibition, most hits filed as inhibitors; 330,000 tested, 0.46% active; active means well fitted inhibition curve with a large enough effect; inconclusive means small, poorly fitted or top-dose-only effect; inactive means no such curve, though single readings can be large or run the other way; tested in A549 cells; further: nearly all actives have a fitted effect of over 30% in size; inactives centre near -10
* = called active by the depositor; i = inactive; ? = inconclusive; . = no result given. On the % scale 0 is the no-effect control and ±100 the full control effect; potency means the concentration at half of the fitted maximal effect. Compounds as they come; 0.82% or so of the library scored in one or more.

Screens in order – Vaccinia mCherry, VACV Venus inh
> Cc1nn(C(C)C(=O)N2CCOCC2)c(C)c1[N+](=O)[O-] (configuration not stated)
  -9%, -3%
> C=CCC1NS(=O)(=O)OC2CCCC12 (configuration not stated)
  i, -1%
> Cc1cnc(CN(C)C(=O)c2ccc3oc(Cc4ccccc4)nc3c2)[nH]1
  i, -12%
> CCn1c(C)nc2cc(C(=O)N/N=C/c3ccc(OC)cc3)ccc21
  -9%, 6%
> Cc1ccc(C(=O)N2CCc3cc(CNC(=O)c4ccccc4F)ccc32)cc1
  -17%, -14%
> COc1cc(/C=C2\CCC(C)C3=C(c4cc(OC)c(OC)c(OC)c4)C(C#N)=C(N)OC32)cc(OC)c1OC (configuration not stated)
  ?, -8%
> COc1ccc(N(CC(=O)Nc2cccnc2)S(=O)(=O)c2ccccc2)cc1Cl
  -9%, -11%
> CN(C(=O)c1ccccc1C(=O)OCC(=O)NC(=O)NC(C)(C)C)C1CCCCC1
  -7%, 1%
> O=C(NCc1ccco1)C1CCC(CNS(=O)(=O)c2cccc3cccnc23)CC1 (configuration not stated)
  16%, -11%
> CCOc1ccc(-c2cc3nc(C4CCN(C(=O)OC(C)(C)C)CC4)c(C(=O)Nc4cc(OC)ccc4OC)cn3n2)cc1
  -13%, -19%
> COC(=O)CCC(=O)Nc1ccc(NC(C)=O)cc1
  i, -5%
> COc1ccccc1-c1nc(NCc2ccccc2)c2ccccc2n1
  ?, -19%
> CN(NC(=O)CN1C(=O)c2ccccc2C1=O)C1=NS(=O)(=O)c2ccccc21
  i, -7%
> N#Cc1ccc(S(=O)(=O)NC2CC2)cc1
  -6%, -14%
> COc1ccc(NC(=O)CSCC(=O)Nc2nnc(CC(C)C)s2)cc1
  -19%, 3%
> CC1(C)CC(=O)C(C(c2cccc([N+](=O)[O-])c2)C2C(=O)CC(C)(C)CC2=O)C(=O)C1
  -24%, -12%
> CC(NC(=O)Cn1cccc1)c1ccccc1 (configuration not stated)
  ?, 6%
> COC(=O)[C@]12CCCCC=C1N(Cc1ccco1)C(=O)[C@H](CC(=O)NCC13CC4CC(CC(C4)C1)C3)C2
  4%, -18%
> O=c1[nH]c2ccccc2n1C1CCN(C(c2cc3ccccc3o2)c2nnnn2Cc2ccccc2)CC1 (configuration not stated)
  ?, ?
> O=C(CCSc1ccccc1)N1CCN(c2ccccc2F)CC1
  ?, -14%
> CN(CC(=O)Nc1ccc2c(c1)OCO2)S(=O)(=O)c1ccc2c(c1)CCC(=O)N2
  -16%, -3%
> CC1CN(C(=O)C(C)N2CCN(c3ccccc3Cl)CC2)CC(C)O1 (configuration not stated)
  -14%, -2%
> O=C(CCCOc1ccc(Br)cc1)NCCc1ccc(OC(F)F)cc1
  i, -10%
> CC(C)(C)n1nnnc1C(c1ccccc1)N1CCN(c2ccc(F)cc2)CC1 (configuration not stated)
  -5%, -1%
> COc1c2c(cc3occ(-c4ccc5c(c4)OCO5)c(=O)c13)OC(C)(C)C=C2
  23%, 0%
> CC(C)NC(=O)N(C)C[C@@H]1Oc2c(NC(=O)C3CCOCC3)cccc2C(=O)N([C@@H](C)CO)C[C@H]1C
  i, -7%
> COc1ccc(S(=O)(=O)c2c(O)c(C)cc(NC(=O)c3ccccc3)c2C(C)C)cc1
  1%, -9%
> CC1C2(C)OC(=N)C(C#N)(C(C)O2)C1(C#N)C#N (configuration not stated)
  -12%, 28%
> COc1ccc(-c2oc3cccnc3c2C#CC2(O)CCCCC2)cc1
  ?, ?
> CCOC(=O)NC(CC(=O)O)c1ccc(OCC)cc1 (configuration not stated)
  -15%, -12%
> COc1ccc(C(=O)NN2C(=S)N(c3ccc(OC)cc3)C(=O)C2CC(N)=O)cc1 (configuration not stated)
  i, -11%
> C=CCSC1=C(C#N)C(c2ccccc2OC)CC(=O)N1 (configuration not stated)
  ., -21%
> CCC1C2Cc3ccc(O)cc3C1(CC)CCN2C (configuration not stated)
  -5%, -17%
> O=C(Nc1ccccc1C(=O)Nc1nnc(C(F)(F)F)s1)c1ccccc1Cl
  ?, -47%
> COc1ccc(-c2oc3ccc(-c4cc(OC)c(OC)c(OC)c4)cc3c2-c2ccc(OC)cc2)cc1
  -11%, -12%
> Oc1cc(Cl)c(Cl)c(Cl)c1Cl
  -25%, -25%
> Cc1ccn2c(c1)nc(=O)c1cc(S(=O)(=O)N3CCC(C)CC3)c(Cl)cc12
  2%, 5%
> COc1ccc(CNC(=O)c2c(Nc3ccc(OC)cc3OC)sc(C(=O)c3ccc(Cl)cc3)c2N)cc1
  -21%, -9%
> O=C(O)c1nn(-c2ccccc2)nc1-c1nn(-c2ccccc2)nc1C(=O)O
  -2%, 4%
> O=C(NC(=S)Nc1ccccc1N1CCCCC1)c1ccccc1
  ?, -23%
> O=C1CC(c2nnc(Cc3ccc(F)cc3Cl)o2)CN1c1ccccc1 (configuration not stated)
  -14%, -18%
> CCOC(=O)C1CCCN(C(=O)c2sc3nc(-c4ccccc4)cn3c2C)C1 (configuration not stated)
  -13%, -11%
> COc1ccccc1CNC(=O)c1ccc(S(=O)(=O)N(C)C)cc1
  -11%, -8%
> CCNC(=O)c1cc2n(n1)CCCN(Cc1ccc(C)cc1)C2=O
  -20%, -6%
> Cc1cccc(NC(=O)C(c2ccccc2)N2Cc3ccccc3C2=O)c1C (configuration not stated)
  i, -7%
> O=C(CSc1ccc(Cl)cc1)Nc1ccccc1Oc1ccccc1
  -12%, -8%
> C#CCOCCOCCOCCNc1nc(N2CCN(C(=O)CCCCCCCCCCNC(=O)Cn3cc(C[C@@H](C)O)nn3)CC2)nc(N2CCN(C(=O)CCCCCCCCCCNC(=O)[C@@H](CCSC)n3cc(CCO)nn3)CC2)n1
  i, ?
> Cc1cc2cc(CNC(=O)NC3CCCCC3)ccc2[nH]1
  -2%, -11%
> O=C(NCc1ccccc1)C1CCN(c2nc(-c3ccccc3)nc3c2CCC3)CC1
  ?, ?
> Cc1ccccc1N1C(=O)CC1(C#N)c1ccc(OCc2ccccc2)cc1 (configuration not stated)
  -22%, -7%
> COC(=O)c1c(NC(=S)Nc2ccc(F)cc2[N+](=O)[O-])sc2c1CCCCC2
  -20%, -4%
> COc1cc(C(C)=NNC(=O)c2ccncc2)ccc1O
  -12%, -4%
> CCSc1nnc2c(Cl)cc(Cl)cn12
  ., -1%
> CCOC(=O)c1cccc(NC(=O)CN2C(=O)C3C4C=CC(C4)C3C2=O)c1 (configuration not stated)
  ?, -17%
> COC(=O)CC1=C(C(=O)OC)C(c2ccc3c(c2)OCO3)C(C#N)=C(N)O1 (configuration not stated)
  i, -3%
> COc1ccc(CCN=C2SCC(=O)N2C)cc1OC
  -11%, 0%
> Cc1cc(C)nc(NS(=O)(=O)c2ccc(NC(=O)c3ccc4c(c3)OCO4)cc2)n1
  -26%, -22%
> CC(=O)c1ccc(NC(=O)c2cccc(N3C(=O)c4ccccc4C3=O)c2)cc1
  -8%, -18%
> Cc1ccc(CCNC(=O)c2ccc(NC(=O)N3CC(C)Sc4ccccc43)cc2)cc1 (configuration not stated)
  -13%, -12%
> CCNC(=S)Nc1cc(C(=O)N2CCCC2)ccc1N1CCCC1
  -12%, 2%

Other structures follow:
Screens in order – Vaccinia mCherry, VACV Venus inh
> C[C@@H]1COC(=O)[C@H](NC(=O)OCC2c3ccccc3-c3ccccc32)C/C=C\C[C@@H](CC(=O)N[C@@H](CO)Cc2ccccc2)C(=O)N1
  -12%, -16%
> O=C(Nc1ccc2snnc2c1)N1CCCCC1
  i, -3%
> CCN1C(=O)C2(C(C(=O)c3cc4ccccc4o3)=C(O)C(=O)N2CCCN2CCOCC2)c2ccccc21 (configuration not stated)
  -3%, -8%
> Cn1nc(CC(=O)NCc2ccc(F)cc2)c2ccccc2c1=O
  -14%, -15%
> O=C(CCCc1ccccc1)NCCN1CCOCC1
  -8%, -1%
> O=C(NCc1ccccc1)C(c1ccc(F)cc1)N1CCN(CCN2CCOCC2)CC1 (configuration not stated)
  1%, -5%
> CC(=O)c1ccc(OC2(C)CCN(Cc3ccc4ccccc4c3)C2)cc1 (configuration not stated)
  -14%, -17%
> Cc1cc(N)nc(C)c1C#N
  i, -9%
> CC(=O)c1cccc(S(=O)(=O)N(C)C2CCN(C)CC2)c1
  -8%, -12%
> CC1CC(C)CN(C(=O)CNC(=O)Cn2ccc3ccccc3c2=O)C1 (configuration not stated)
  i, 10%
> COc1cc(C2c3cc4c(cc3CC3COC(=O)C32)OCO4)cc(OC)c1O (configuration not stated)
  -24%, ?
> Cc1cc(C)c(S(=O)(=O)N2Cc3ccccc3-n3nncc3C2)c(C)c1
  -18%, -22%
> O=C(COC(=O)C1CCN(/C=C/C(=O)C(F)(F)F)CC1)Nc1ccccc1
  -6%, 3%
> O=c1[nH]c2cc([N+](=O)[O-])c([N+](=O)[O-])cc2[nH]c1=O
  i, -10%
> c1ccc(Nc2nc(N3CCNCC3)nc(N3CCOCC3)n2)cc1
  -18%, -6%
> COc1ccc(-c2cc(=O)[nH]c(N3CCN(Cc4ccccc4)CC3)n2)cc1
  i, -15%
> Cc1ccc(C2CC(c3cccs3)=NN2C(=O)CSc2nc(=O)n3cc(C)ccc3n2)cc1 (configuration not stated)
  -6%, -29%
> Cc1nc(-c2ccc(Cl)cc2)sc1CCNC(=O)Cc1ccc(F)cc1
  -20%, -28%
> CC(C)(Oc1ccc(Br)cc1Cl)C(=O)Nc1ccon1
  i, -14%
> Oc1ccc2ccccc2c1C=Nc1ccc(N2CCOCC2)cc1
  1%, -7%
> C[C@@H]1CN([C@@H](C)CO)C(=O)c2cc(Br)cnc2O[C@H]1CN(C)S(=O)(=O)c1ccccc1
  -2%, -18%
> O=C(CCc1c[nH]c2ccccc12)NC(Cc1ccccc1)C(=O)O (configuration not stated)
  i, -20%
> Cc1ccc(-c2nc(C#N)c(NCCCn3ccnc3)o2)cc1
  16%, -6%
> COc1cc2c(cc1OC)CN(c1ccc([N+](=O)[O-])cc1C#N)CC2
  -12%, -19%
> COc1ccc(-c2oc3cc(O[C@@H]4OC(CO)C(O)C(O)C4O)c(OC)c(O)c3c(=O)c2OC)cc1O (some centres not stated)
  -9%, -23%
> COc1ccccc1C=CC(=O)C=Cc1ccccc1OC
  ?, ?
> CC(/C=N/Nc1nnc(C)c(=O)[nH]1)=C\c1ccccc1
  i, -10%
> CCOc1ccc(NC(=O)CN(C)C(=O)c2sccc2-c2ccccc2)cc1OCC
  ?, -22%
> COc1ccc(/C=N/NC(=O)CSc2nnc(C)n2-c2ccccc2)c(OC)c1OC
  ., -39%
> OCC[C@@H]1C[C@@H](O)[C@H](O)[C@@]2(Cc3ccccc3CO2)O1
  -10%, -2%
> COC(=O)c1cc(C)[nH]c2c(C)cc3nc4ccccc4c3c12
  ?, -26%
> CCCCn1c(O)c(C(C)=Nc2ccc(C(=O)O)cc2)c(=O)[nH]c1=O
  -5%, -2%
> COc1ccc(N2CCN(C(=O)CN(C)S(=O)(=O)c3cc(C)ccc3OC)CC2)cc1
  -26%, -21%
> CCN(Cc1ccccc1)C(=O)Cc1ccc(OC)c(S(=O)(=O)N2CCOCC2)c1
  i, -4%
> O=C(COC(=O)/C=C/c1cccs1)Nc1cccc(S(=O)(=O)N2CCCC2)c1
  i, -11%
> O=C(/C=C/c1cccc(C(F)(F)F)c1)OCC(=O)N1CCN(c2ccccc2)CC1
  -10%, 2%
> COc1ccc(C=C2CCC3C(CCCC34OCCO4)C2=O)cc1 (configuration not stated)
  -6%, -27%

Gathered by group, the entries above containing fluorine (12)
Screens in order – Vaccinia mCherry, VACV Venus inh
> Cc1ccc(C(=O)N2CCc3cc(CNC(=O)c4ccccc4F)ccc32)cc1
  -17%, -14%
> O=C(CCSc1ccccc1)N1CCN(c2ccccc2F)CC1
  ?, -14%
> O=C(CCCOc1ccc(Br)cc1)NCCc1ccc(OC(F)F)cc1
  i, -10%
> CC(C)(C)n1nnnc1C(c1ccccc1)N1CCN(c2ccc(F)cc2)CC1 (configuration not stated)
  -5%, -1%
> O=C(Nc1ccccc1C(=O)Nc1nnc(C(F)(F)F)s1)c1ccccc1Cl
  ?, -47%
> O=C1CC(c2nnc(Cc3ccc(F)cc3Cl)o2)CN1c1ccccc1 (configuration not stated)
  -14%, -18%
> COC(=O)c1c(NC(=S)Nc2ccc(F)cc2[N+](=O)[O-])sc2c1CCCCC2
  -20%, -4%
> Cn1nc(CC(=O)NCc2ccc(F)cc2)c2ccccc2c1=O
  -14%, -15%
> O=C(NCc1ccccc1)C(c1ccc(F)cc1)N1CCN(CCN2CCOCC2)CC1 (configuration not stated)
  1%, -5%
> O=C(COC(=O)C1CCN(/C=C/C(=O)C(F)(F)F)CC1)Nc1ccccc1
  -6%, 3%
> Cc1nc(-c2ccc(Cl)cc2)sc1CCNC(=O)Cc1ccc(F)cc1
  -20%, -28%
> O=C(/C=C/c1cccc(C(F)(F)F)c1)OCC(=O)N1CCN(c2ccccc2)CC1
  -10%, 2%
